# Screens (PubChem)
# Methyltransferases – Primary Screen for Target Class Profiling of Small Molecule Inhibitors of Methyltransferases; purified enzyme, MTase-Glo SAH luminescence; active compounds read low; calls only at 40 µM; hit rate 3.9% among 25,000; AID 1745853, 2022; active = -50% or lower on at least one of six enzymes; inconclusive = the cases between; inactive = as a rule above -30% on all six;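 further: enzymes were COMT GAMT GNMT HNMT NNMT and PNMT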
#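 Each enzyme was reacted with SAM and its substrate, with compounds tested once at 40 uM; SAH formed was read by MTase-Glo luminescence.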
# Calls only; i = inactive; u = inconclusive; + = active, no number. On the % scale 0 is the no-effect control and ±100 the full control effect. A portion of the library (hit frequency here may not be typical).
SMILES,Methyltransferases
COc1ccc(NC(=O)C(C)(C)Oc2nn(CC3CC3)c3ccc(CN4CCCC4)cc23)cc1,+
CCc1cc2c(cc3n2CC(C(=O)NC2CCCCCCC2)(c2ccccc2)N(Cc2ccccc2)C3=O)s1 (stereo unspecified),i
O=C(Cn1nc2n(Cc3ccc(F)cc3)c(=O)c3ccccc3n2c1=O)Nc1ccc(F)cc1,i
Cc1nc(C)c(C(=O)N2CCC(c3nnc(Cn4ccnc4)n3C)CC2)o1,i
Cc1c(Cl)cccc1N1C(=O)c2cc3occc3n2CC1(C)C(=O)NC1CCCCCCC1 (stereo unspecified),i
CCCN1C(=O)c2cc3c(OC)ccc(OC)c3n2CC1(C)C(=O)NC1CCCC1 (stereo unspecified),i
Cc1ccc(CN2C(=O)c3nc4ccccc4n3CC2(C)C(=O)NC2CCCCC2C)cc1 (stereo unspecified),i
Cn1cc(CN2CCN(c3cnccn3)CC2)c(-c2ccc(C3CCCCC3)cc2)n1,i
C#CCNC(=O)C1CCc2nnc(CNC(=O)c3ccc(Cl)cc3Cl)n21 (stereo unspecified),i
CC(C)CC(=O)N1CCCCCC1c1nc(-c2ccncc2)no1 (stereo unspecified),i
CN(CC1Cc2ccccc2O1)C(=O)c1coc(COc2ccc3c(c2)OCO3)n1 (stereo unspecified),i
C[C@@H](O)[C@H]1C(=O)N2C(C(=O)O)=C(S[C@@H]3CN[C@H](C(=O)N(C)C)C3)[C@H](C)[C@H]12,u
CCC(C)NC(=O)c1ccc2c(=O)n(C(C)C)c3nn(Cc4ccccc4Cl)c(=O)n3c2c1 (stereo unspecified),i
Cc1noc(CN(C)c2ncnc3ccc(-c4ccc5c(c4)OCO5)cc23)n1,u
O=C(CCn1ccc2cc(S(=O)(=O)N3CCCC3)ccc21)NCCc1cccs1,i

# Next part (4 carried over from the part before).
SMILES,Methyltransferases
C[C@@H](O)[C@H]1C(=O)N2C(C(=O)O)=C(S[C@@H]3CN[C@H](C(=O)N(C)C)C3)[C@H](C)[C@H]12,u
CCC(C)NC(=O)c1ccc2c(=O)n(C(C)C)c3nn(Cc4ccccc4Cl)c(=O)n3c2c1 (stereo unspecified),i
Cc1noc(CN(C)c2ncnc3ccc(-c4ccc5c(c4)OCO5)cc23)n1,u
O=C(CCn1ccc2cc(S(=O)(=O)N3CCCC3)ccc21)NCCc1cccs1,i
COc1ccc2cc3n(c2c1)CC(C)(C(=O)NC1CCCCC1)N(CCN1CCOCC1)C3=O (stereo unspecified),i
O[C@H]1CC[C@@H](Cc2cc(CN3CCN(c4ccccc4)CC3)on2)O[C@@H]1CNCc1ccccc1,i
COC(=O)c1ncn2c1C(=O)N(Cc1cccc(OC)c1)C(C)(C(=O)NC1CCCC1)C2 (stereo unspecified),i
O=C(c1ccccc1Cl)N1CCc2c(nc3cc(-c4ccccc4)[nH]n3c2=O)C1,u
CC(=O)NCC(=O)NC1CC(C)(C)Cc2nc(N(C)Cc3ccccc3)ncc21 (stereo unspecified),i
CC(=O)Nc1c2n(c3ccc(F)cc13)CC(C)(C(=O)NC1CCCC1)N(Cc1ccccc1F)C2=O (stereo unspecified),i
CCC(=O)N(C1CCOCC1)C1CCN(S(=O)(=O)c2c(C)nn(C)c2C)CC1,i
COc1ccc(CCNS(=O)(=O)c2ccc3[nH]c(=O)[nH]c3c2)cc1OC,i
Cc1ccc(CN2C(=O)c3c(-n4cccc4)c4cc(C)ccc4n3CC2(C)C(=O)NC2CCC(C)CC2)cc1 (stereo unspecified),i
COc1ccc(OC)c2c1cc1n2CC(C)(C(=O)NC2CCCCCC2)N(Cc2cccs2)C1=O (stereo unspecified),i
CCCN1C(=O)c2c(C(=O)NCc3cccc(C)c3)ncn2CC1(C)C(=O)NCCC(C)C (stereo unspecified),i
O=C(NC1CC1)c1nc(-c2ccc(F)cc2)c2cnccn12,i
CCOCCn1nc(CC)c2nc(N3CCC(C(=O)O)CC3)nc(Nc3cc(C)ccn3)c21,u
CCOCCCNC(=O)c1cc2n(n1)CC(C)(C(=O)NCCC(C)C)N(C)C2=O (stereo unspecified),i
COc1ccc(-c2cc3n(n2)CC(C)(C(=O)NCc2ccccc2OC)N(c2ccc(OC)cc2)C3=O)cc1 (stereo unspecified),i
O=C(NC1CCC1)c1ccc2nccn2c1,i
Cc1ccc(N2CCN(C(=O)Cn3c(=O)oc4cc(S(=O)(=O)N5CCCC5)ccc43)CC2C)cc1 (stereo unspecified),i
Cn1cccc1CN1CCC2(C1)C(=NC1CCCC1)NC(=O)N2c1cccnc1 (stereo unspecified),i
CCOCCCN1C(=O)c2cc(-c3ccc(OC)cc3)nn2CC1(C)C(=O)NCc1ccccc1 (stereo unspecified),i
Cc1cccc(CNC(=O)C2(C)Cn3cnc(C(=O)N4CCOCC4)c3C(=O)N2C2CC2)c1 (stereo unspecified),i
CCCSCCCN1C(=O)c2nc3ccccc3n2CC1(C)C(=O)NC1CCC(C)CC1 (stereo unspecified),i
Cc1ccc(Cn2c(=O)c3ccc(C(=O)NCC(C)C)cc3n3c(=O)n(Cc4ccccc4F)nc23)cc1,i
O=C1CCC2(CCCN(C(=O)c3ccc(=O)[nH]c3)C2)CN1CCc1cnc[nH]1 (stereo unspecified),i
O=C(CCc1nc2ccccc2[nH]1)N1CCC(c2nc(CCOCC3CC3)no2)C1 (stereo unspecified),i
COc1ccc(S(=O)(=O)Nc2cc(Cl)cc(Cl)c2OC)cc1N1CCNCC1,i
CCCS(=O)(=O)N1CCC2(CC1)c1[nH]c3ccccc3c1CCN2C,i
CCCn1c(=O)c2ccc(C(=O)NC3CCCC3)cc2n2c(=O)n(CC(=O)Nc3cccc(F)c3)nc12,i
Cc1ccccc1-c1cc(O)c2c(c1)CN(C(=O)C1CCNCC1)CCO2,i
CN(Cc1ccc(-c2ccccc2)cc1)CC1CCCCC1,i
CCc1nc2c(c(-c3ccc(Cl)cc3)n1)CN(Cc1ccccn1)CC2,i

# Continued; it opens with the 3 that closed the last part.
SMILES,Methyltransferases
Cc1ccccc1-c1cc(O)c2c(c1)CN(C(=O)C1CCNCC1)CCO2,i
CN(Cc1ccc(-c2ccccc2)cc1)CC1CCCCC1,i
CCc1nc2c(c(-c3ccc(Cl)cc3)n1)CN(Cc1ccccn1)CC2,i
COc1ccc(N2CCN(C(=O)CCCc3nnc4n5nc(-c6ccccc6)nc5c5ccccc5n34)CC2)cc1,i
COc1cccc(Cn2nc3n(C(C)C)c(=O)c4ccc(C(=O)NCC(C)C)cc4n3c2=O)c1,i
CCCN1C(=O)c2cc3ccccc3n2CC1(C)C(=O)NCCC(C)C (stereo unspecified),i
COc1ccc(CN2CCNC(=O)C2CC(=O)NCc2ccncc2)cc1OC (stereo unspecified),i
COc1ccccc1S(=O)(=O)Nc1ccc2c(c1)CN(C)C(=O)N2,u
COc1cccc(CN2C(=O)c3cc4sccc4n3CC2(C)C(=O)NC2CCCCC2)c1 (stereo unspecified),i
O=C1CN(Cc2ccc(Cl)cc2)S(=O)(=O)c2ccccc2N1Cc1ccc(F)cc1,i
CC(C)Cn1c(=O)c2cc(F)ccc2n2c(SCC(=O)Nc3cc(F)ccc3F)nnc12,i
O=C(Cn1nc2n(Cc3ccccc3)c(=O)c3ccccc3n2c1=O)NC1CCCCC1,i
COc1cc(CNC(=O)CCCCCCC(C)C)ccc1O,i
O=C(O)c1ccc(NC(=O)[C@H](CC2CCCC2)n2cnc(C(F)(F)F)c2)nc1,i
CCOC(=O)[C@@H]1[C@H]2c3ccccc3N(CCOC)C(=O)[C@H]2N(C(=O)c2ccccc2)[C@@H]1c1ccccc1,i
C=C1C(O)C(O)C2(CC3C(C)=CCC4C(C)(C(=O)O)CCCC34C)OC2C1O (stereo unspecified),i
Cc1cc2c(cc3n2CC(C)(C(=O)NC2CCCCCC2)N(Cc2ccccc2Cl)C3=O)o1 (stereo unspecified),i
C=CCn1nc(C)c(CN2CC[C@H](N3CCN(C)CC3)[C@H](CCC(=O)O)C2)c1C,i
O=S(=O)(N[C@H]1[C@H](O)[C@H](O)C[C@@H]1c1cncnc1)c1ccc(Cl)cc1,i
C=Cc1ccc(Cn2nc3n(Cc4ccc(C)cc4)c(=O)c4ccccc4n3c2=O)cc1,i
CC(C)CCn1c(=O)c2ccccc2n2c(CCC(=O)NCc3ccccc3)nnc12,i
CC1CCCC(NC(=O)C2(C)Cn3c(cc4occc43)C(=O)N2CCCc2ccccc2)C1C (stereo unspecified),i
CC(C)Cn1c(=O)n(CC(C)N2CCCC2)c2cc(C(=O)O)cnc21 (stereo unspecified),i
CC1OC(O[C@H]2[C@@H](O)C[C@@]3(C)C([C@H](O)C[C@]4(C)C3CC=C3C5CC(C)(C)CC[C@]5(C(=O)OC5OC(CO)C(O)C(O)C5OC5OCC(OC6OCC(OC7OCC(O)C(O)C7O)C(O)C6O)C(OC6OCC(O)(CO)C6O)C5O)CC[C@]34C)[C@]2(C)CO)C(O)C(O)C1O (stereo partly specified),i
CCCCc1nc(C)c(CC(=S)N(C)C)c(=O)n1Cc1ccc(-c2ccccc2-c2nn[nH]n2)cc1,i
CCCn1c(=O)c2ccccc2n2c(SCc3cccc(OC)c3)nnc12,i
Cc1nc(C)c(C(=O)N2CCC(N3C(=O)C4(CCCC4)C3c3scnc3C)CC2)s1 (stereo unspecified),i
Cc1cc(CN2CCC3(CC2)CC(c2ccccc2)C(=O)N(C2CC2)C3)on1 (stereo unspecified),i
C=C(CCC1C(C)(O)CCC2C(C)(C)C(O)CCC12C)C(O)CO (stereo unspecified),i
O=C(Cn1c(=O)oc2cc(S(=O)(=O)N3CCCC3)ccc21)NC1CCCc2ccccc21 (stereo unspecified),i
COC(=O)c1ncn2c1C(=O)N(Cc1ccccc1F)C(C)(C(=O)NC1CCCCCC1)C2 (stereo unspecified),i
CCOC(=O)C(C)Oc1cccc2c(=O)n(CC(=O)Nc3ccc4c(c3)OCCO4)ccc12 (stereo unspecified),i
COCCCN1C(=O)CSc2c(c3ccccc3n2C)C1C(=O)NCc1ccc(F)cc1 (stereo unspecified),i
Cc1ccc2c(c1)c(C(=O)N[C@H](c1cnn(C)c1)C1CC(O)C1)nn2C (stereo partly specified),i
COc1ccccc1C(=O)Nc1cccc(NC(=O)c2cccc(C)c2)c1,i
Cc1ccc(N2C(=O)c3cc4occc4n3CC2(C)C(=O)NC2CCCC(C)C2C)cc1 (stereo unspecified),i
CN(CCCNC(=O)CCc1nnc2n(Cc3ccccc3)c(=O)c3ccccc3n12)Cc1ccccc1,u
O=C(c1ccc2c(=O)nc3c(-c4cccc(F)c4)n[nH]n3c2c1)N1CCN(c2ccc(F)cc2)CC1,i
CCOC(=O)c1cc2n(n1)CC(C)(C(=O)NC1CCC(C)CC1)N(c1cc(Cl)ccc1C)C2=O (stereo unspecified),i
C/C=C(/C)C(=O)O[C@H]1[C@H](OC(=O)/C(C)=C\C)[C@@]23C(CC1(C)C)[C@]1(CCC4[C@@]5(C)CC[C@H](O[C@@H]6O[C@H](C(=O)O)[C@@H](O)[C@H](O[C@@H]7O[C@H](CO)[C@H](O)[C@H](O)[C@H]7O[C@@H]7O[C@@H](C)[C@H](O)[C@@H](O)[C@H]7O[C@@H]7OC[C@@H](O)[C@H](O)[C@H]7O)[C@H]6O[C@@H]6O[C@H](CO)[C@H](O)[C@H](O)[C@H]6O)C(C)(C)C5CC[C@@]4(C)[C@]1(C)C[C@H]2O)O[C@H]3O (stereo partly specified),i
Cc1ccc2c(c1)N(CC(=O)N1[C@@H]3CC[C@H]1CNC(=O)C3)C(=O)CO2,i
O=c1cc(N2CCOCC2)oc2c(-c3ccccc3O)nccc12,i
CN1CC2(CCN(Cc3ccc(-c4ccc(Cl)cc4)o3)C2)OC1=O (stereo unspecified),i
O=C(CCCc1nnc2n3nc(-c4ccccc4)nc3c3ccccc3n12)NC1CCCCC1,i
CC1(C(=O)NC2CCCCCCC2)Cc2ccccc2C(=O)N1C1CCCC1 (stereo unspecified),i
O=C(Cn1c(=O)oc2cc(S(=O)(=O)NCc3ccccc3)ccc21)NCc1ccc(Cl)cc1,i
COc1ccccc1CNC(=O)C1c2c(n(C)c3ccccc23)SCC(=O)N1c1ccc(F)cc1 (stereo unspecified),i
CC1(C(=O)NC2CCCC2)Cn2c(ccc2-c2ccco2)C(=O)N1CCCN1CCOCC1 (stereo unspecified),i

# Sorted by molecular weight (low to high): 3 of the compounds above.
SMILES,Methyltransferases
Cc1ccc2c(c1)N(CC(=O)N1[C@@H]3CC[C@H]1CNC(=O)C3)C(=O)CO2,i
Cc1ccc2c(c1)c(C(=O)N[C@H](c1cnn(C)c1)C1CC(O)C1)nn2C (stereo partly specified),i
CCOC(=O)c1cc2n(n1)CC(C)(C(=O)NC1CCC(C)CC1)N(c1cc(Cl)ccc1C)C2=O (stereo unspecified),i

# (list continues)
SMILES,Methyltransferases
COc1ccc2cc3n(c2c1)CC(C)(C(=O)NC1CCCCCC1)N(Cc1ccco1)C3=O (stereo unspecified),i
C[C@H]1[C@H](C)CC[C@]2(C(=O)O[C@@H]3O[C@H](CO)[C@@H](O)[C@H](O)[C@H]3O)CC[C@]3(C(=O)O)C(=CCC4[C@@]5(C)CC[C@H](O[C@@H]6O[C@H](CO)[C@@H](O)[C@H](O)[C@H]6O)C(C)(C)C5CC[C@]43C)[C@H]12 (stereo partly specified),i
CN(CCN1C(=O)c2cc3sccc3n2CC1(C)C(=O)NC1CCCCCC1)C1CCCCC1 (stereo unspecified),i
NC(=O)[C@@H](Cc1ccccc1)NC(=O)[C@@H]1C[C@@H](NS(=O)(=O)c2cccs2)CCN1C(=O)CSCC(=O)O,i
CCCn1c(=O)c2ccc(C(=O)NCC(C)C)cc2n2c(=O)n(CC(=O)Nc3ccccc3)nc12,i
CC1(C(=O)NC2CCCCCC2)Cn2c(ccc2-c2ccco2)C(=O)N1CCCc1ccccc1 (stereo unspecified),i
